From PubChem BioAssay
AmpC nodet inh – Promiscuous and Specific Inhibitors of AmpC Beta-Lactamase (assay without detergent); P00811; AmpC nitrocefin hydrolysis, absorbance 480 nm, no detergent; potencies from a single point are estimates; Potency, µM (titrated, usually from 28.7 µM), without a hit: at the top dose activity change, negative = inhibition; hit rate 1.8% among 71,000; active = falling curve, for most hits resting on a single point; inconclusive = weak or doubtful change; inactive = flat or rising curve; note: % of control where 0% means no effect; about half of the hits show no inhibition at the top dose; a quarter of the inactives give rising signals
Target sequence (P00811 whole entry, looked up): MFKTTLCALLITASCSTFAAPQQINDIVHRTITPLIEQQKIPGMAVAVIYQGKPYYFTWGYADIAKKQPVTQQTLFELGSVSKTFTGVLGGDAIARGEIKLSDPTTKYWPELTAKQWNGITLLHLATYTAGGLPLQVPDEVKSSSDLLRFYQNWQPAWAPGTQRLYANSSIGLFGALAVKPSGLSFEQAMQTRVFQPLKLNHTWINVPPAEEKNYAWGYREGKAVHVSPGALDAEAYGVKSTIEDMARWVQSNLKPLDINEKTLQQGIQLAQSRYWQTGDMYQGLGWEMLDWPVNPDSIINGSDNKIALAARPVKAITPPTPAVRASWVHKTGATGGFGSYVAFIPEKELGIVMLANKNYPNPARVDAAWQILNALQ
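Enzyme, pH 7.0 phosphate. Compound titrations were pre-incubated with AmpC for 15 min at room temperature before nitrocefin (stock 800 uM) addition; product formation was recorded at 480 nm every 20 s for 4 min.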
* marks the source's active call; other numbers are inactive results; [ ] = another dose, or the depositor's remark. Potency is the fitted concentration of half-maximal effect. Only part of the results is shown. The share of hits here may be higher or lower than overall.

Screening O=C(Nc1ccc2c(c1)nc1n2CCN(C2CCCCC2)C1)c1ccco1 returned AmpC nodet inh 34%.
Screening Cc1nc(SCC(=O)O)c2oc3ccccc3c2n1 returned AmpC nodet inh -8%.
Screening CCCn1c(C(C)NC(=O)c2ccccc2)nc2ccccc21 (stereo not drawn) returned AmpC nodet inh 12%.
Screening Cc1ccc(-n2ncc3c(=O)n(-c4ccc(C)c(C)c4)c(C)nc32)cc1 returned AmpC nodet inh 53%.
Nc1sccc1C(=O)c1ccccc1 was read as AmpC nodet inh -18%.
O=c1c2oc3ccccc3c2ncn1Cc1ccccc1F was read as AmpC nodet inh -1%.
Cc1cc(C)n(C(=O)CCNC(=O)c2ccccc2Br)n1 was read as AmpC nodet inh -2%.
For COc1cc([C@H]2[C@@H]3CCCC[C@]3(O)CCN2CC(=O)Nc2ccc(C)cc2C)ccc1O the results were AmpC nodet inh 39%.
Screening N#Cc1c(-c2ccco2)c2c([nH]c1=S)CCCC2 returned AmpC nodet inh 17%.
Screening COc1cc(CN2CCN(c3cc(C)ccc3C)CC2)ccc1O returned AmpC nodet inh 34%.
CCOC(=O)c1ccc(NC(=O)CC2COc3ccccc3O2)cc1 (stereo not drawn) was read as AmpC nodet inh -10%.
Cc1cc2nn(-c3cccc4ccccc34)nc2cc1N was read as AmpC nodet inh 11%.
Screening Cc1cc(C)cc(NC2=NCC(=O)N2Cc2ccccc2)c1 returned AmpC nodet inh 38%.
`O=C(c1cc(C(F)(F)F)cc(C(F)(F)F)c1)N1CCC2(CCCN(Cc3ccncc3)C2)CC1` gave AmpC nodet inh 116%.
For CCN(CC)C(=O)C1CCC(CNS(=O)(=O)c2cccc3cccnc23)CC1 (stereo not drawn) the results were AmpC nodet inh 70%.

Some of these compounds in order of molecular weight, high to low:
`O=C(c1cc(C(F)(F)F)cc(C(F)(F)F)c1)N1CCC2(CCCN(Cc3ccncc3)C2)CC1` gave AmpC nodet inh 116%.
For COc1cc([C@H]2[C@@H]3CCCC[C@]3(O)CCN2CC(=O)Nc2ccc(C)cc2C)ccc1O the results were AmpC nodet inh 39%.
O=c1c2oc3ccccc3c2ncn1Cc1ccccc1F was read as AmpC nodet inh -1%.

Going on with the list.
Screening O=C1c2ccccc2NC(c2ccc3c(c2)OCO3)N1O (stereo not drawn) returned AmpC nodet inh -12%.
COCCn1c(SCC(=O)Nc2ncc(Cl)c(C)c2Cl)nc2ccccc21 was read as AmpC nodet inh 115%.
`CCOC(=O)N1CCN(C(=O)c2ccc3nc(N4CCC(C)CC4)sc3c2)CC1` gave AmpC nodet inh 102%.
Screening COc1cc(S(=O)(=O)N2CCOCC2)c(OC)c(S(=O)(=O)N2CCOCC2)c1 returned AmpC nodet inh 9%.
For O=C(NCCCn1ccnc1)C(F)(F)C(F)(F)C(=O)NCCCn1ccnc1 the results were AmpC nodet inh -8%.
`O=C(Nc1ccccc1)c1ccc(NCc2ccco2)c(S(=O)(=O)N2CCOCC2)c1` gave AmpC nodet inh -7%.
For CC(=O)C[C@H](c1ccc([N+](=O)[O-])cc1)c1c(O)c2ccccc2oc1=O the results were AmpC nodet inh -6%[12.8 µM].
Screening O=C(c1cccs1)N1CCC(c2nc(-c3ccc(S(=O)(=O)N4CCOCC4)cc3)no2)CC1 returned AmpC nodet inh 103%.
CCOP1(=S)Oc2cc3c(cc2C(C(=O)OC)(C(F)(F)F)O1)OCO3 (stereo not drawn) was read as AmpC nodet inh -2%.
O=C(c1cccs1)N1CCCc2ccccc21 was read as AmpC nodet inh 11%.
Screening O=c1c2ccccc2nc(SCc2cn3ccsc3n2)n1-c1ccc(F)cc1 returned AmpC nodet inh 2%.
CCCC1CC(c2csc(N)n2)CCO1 (stereo not drawn) was read as AmpC nodet inh 0%.
Screening Cn1c(/N=C/c2ccc3c(c2)OCO3)nc2ccccc21 returned AmpC nodet inh -11%.
Screening CCOc1ccc(NC(=O)CCN2CCN(S(=O)(=O)c3cc(Cl)ccc3OC)CC2)cc1 returned AmpC nodet inh 141%.
For CC1CN(c2oc(Cc3cccc4ccccc34)nc2C#N)CC(C)O1 (stereo not drawn) the results were AmpC nodet inh 99%.
Cc1cc(C)c(C#N)c(SCC(=O)Nc2ccc(S(=O)(=O)Nc3onc(C)c3C)cc2)n1 was read as AmpC nodet inh -17%.
Screening Cc1cc(NC(c2cccnc2)c2c(C)[nH]c3ccccc23)no1 (stereo not drawn) returned AmpC nodet inh -10%.
CCOC(=O)C1=C(C)NC2=C(C(=O)CCC2)C1c1ccsc1 (stereo not drawn) was read as AmpC nodet inh -2%.
For CCc1cccc(C)c1NC(=O)c1ccoc1C the results were AmpC nodet inh -6%.
Cc1nnc(SCC(=O)NCc2cccs2)n1-c1ccccc1 was read as AmpC nodet inh 2%.
For CC(C)(CSc1nncn1N)NS(=O)(=O)c1ccc(Cl)cc1 the results were AmpC nodet inh 5%.
O=C(NCc1ccc2c(c1)OCO2)c1ccc(CS(=O)(=O)c2cccc(C(F)(F)F)c2)o1 was read as AmpC nodet inh 35%.
For O=C(c1cc(-c2ccc(O)cc2)on1)N1CCc2ccccc2C1 the results were AmpC nodet inh inconclusive.
Screening COc1ccc(N2CCN(CC(=O)Nc3cc(C)on3)CC2)cc1 returned AmpC nodet inh 8%.
For Cc1nc2nc(C)c(CCC(=O)N3CCOCC3)c(C)n2n1 the results were AmpC nodet inh -1%.
`Clc1cc(Cl)c(Cl)c(Cl)c1Cl` gave AmpC nodet inh -5%.
`CCc1cccc(C)c1NC(=O)CSc1nc2ccccc2n1CC(=O)N(C)C` gave AmpC nodet inh 31%.
`CC1(C)NC(=O)N(CCCOc2ccc(Br)cc2Cl)C1=O` gave AmpC nodet inh 40%.
`Cc1ccc(S(=O)(=O)c2nc(-c3ccc(F)cc3)oc2SCC(=O)NCC2CCCO2)cc1` (stereo not drawn) gave AmpC nodet inh 10%.
Screening O=C(NCCn1ccc2ccccc21)c1ccc(S(=O)(=O)N2CCCCC2)cc1 returned AmpC nodet inh 19%.
Screening CCOC(=O)C(C)Sc1nnc(CNC(=O)c2ccc(OC)cc2)n1C1CCCCC1 (stereo not drawn) returned AmpC nodet inh 99%.
O=C(CSC1=NCCS1)Nc1ccnc2ccccc12 was read as AmpC nodet inh -15%.
`COc1ccc(CSC2=C(C#N)C(=O)NC3(CCCCC3)S2)cc1` gave AmpC nodet inh -8%[5.75 µM].
O=C(N1CCOCC1)N1CCCN(C(=O)N2CCOCC2)CC1 was read as AmpC nodet inh 1%.
`CCS(=O)(=O)N1CCN(c2ccccc2F)CC1` gave AmpC nodet inh -7%.
`O=C(O)CCCC(=O)N1CC(=O)Nc2ccccc21` gave AmpC nodet inh -2%.
For CC1=C(C(=O)OCc2ccc3c(c2)OCO3)C(c2ccc(F)cc2)NC(=O)N1 (stereo not drawn) the results were AmpC nodet inh 21%.
Screening CCC(c1nnc(SCC(=O)Nc2nnc(-c3ccccc3)o2)n1Cc1ccccc1)N(C)C (stereo not drawn) returned AmpC nodet inh 62%.
For CC(=O)c1cccc(NC(=O)c2c(F)c(F)c(F)c(F)c2F)c1 the results were AmpC nodet inh 1%.
Screening O=C(NCCC1=CCCCC1)C1CCN(S(=O)(=O)c2cccc3nonc23)CC1 returned AmpC nodet inh 20µM*[single pt active].
`CCCCC(=O)Nc1nc2ccc3nc(C)sc3c2s1` gave AmpC nodet inh 100%.
Screening O=C(NCc1ccc(N2CCCC2=O)cc1)Nc1cccc(Cl)c1 returned AmpC nodet inh 6%.
For CS(=O)(=O)N(CCc1ccccc1)CC(=O)N1CCCCC1 the results were AmpC nodet inh 19%.
For O=C1CN(c2ccc(Br)cc2)C(=O)N1CC(=O)N1CCCc2ccccc21 the results were AmpC nodet inh 19%.
`CC1Cc2cc(/C(O)=C3/C(=O)C(=O)N(CCN4CCOCC4)C3c3cccc(Cl)c3)ccc2O1` (stereo not drawn) gave AmpC nodet inh 7%.

Among those listed so far, 2 have an NH in an aromatic ring:
Screening N#Cc1c(-c2ccco2)c2c([nH]c1=S)CCCC2 returned AmpC nodet inh 17%.
Screening Cc1cc(NC(c2cccnc2)c2c(C)[nH]c3ccccc23)no1 (stereo not drawn) returned AmpC nodet inh -10%.

Later entries:
For O=C(CN(CC1CCCO1)S(=O)(=O)c1ccc(S(=O)(=O)NC2CC2)cc1)Nc1ccccc1 (stereo not drawn) the results were AmpC nodet inh 18%.
Screening CCOC(=O)c1ccc(NC(=O)CCc2c(C)nc3ncnn3c2C)cc1 returned AmpC nodet inh 34%.
For CCCc1nnc(NC(=O)CN2C(=O)C3C4C=CC(C4)C3C2=O)s1 (stereo not drawn) the results were AmpC nodet inh -1%.
Screening CNC(=O)c1cc2c(s1)CCCCCC2 returned AmpC nodet inh 1%.
Screening O=C(O)c1c(-c2nccc3ccccc23)[nH]c(-c2ccccc2)c1S(=O)(=O)O returned AmpC nodet inh 0%[5.75 µM].
Screening Cc1cc(Oc2ccc(Cl)cc2)nc(-c2ccccc2O)n1 returned AmpC nodet inh -10%.
COc1ccccc1-c1nnc(SCC(=O)Nc2ccccc2)o1 was read as AmpC nodet inh 30%.
`O=C(NC1CCCC1)c1csc2c1CCCC2` gave AmpC nodet inh -18%.
Screening O=C(NCC(c1cccnc1)N1CCN(c2ccc(F)cc2)CC1)OCc1ccccc1 (stereo not drawn) returned AmpC nodet inh 87%.
CCOC(=O)c1cnn(-c2ncnc3sc4c(c23)CCC4)c1N was read as AmpC nodet inh 98%.
Screening Cc1noc(C)c1C(=O)N1CCC2(CCN(Cc3ccncc3)CC2)CC1 returned AmpC nodet inh 7%.
Screening CCCC1Cc2nc(N3CCCCC3)c(C#N)cc2CO1 (stereo not drawn) returned AmpC nodet inh 12%.
`CCC(=O)Nc1c2c(nn1-c1cccc(Cl)c1)CSC2` gave AmpC nodet inh 4µM*[single pt active].
Screening CCn1cnc2cc(NCc3cccc(OC)c3O)ccc21 returned AmpC nodet inh 15%.
For COC(=O)c1ccc(Oc2ccc3nnc(C)n3n2)cc1 the results were AmpC nodet inh 9%.

By substructure, those above with bromine
Cc1cc(C)n(C(=O)CCNC(=O)c2ccccc2Br)n1 was read as AmpC nodet inh -2%.
`CC1(C)NC(=O)N(CCCOc2ccc(Br)cc2Cl)C1=O` gave AmpC nodet inh 40%.
For O=C1CN(c2ccc(Br)cc2)C(=O)N1CC(=O)N1CCCc2ccccc21 the results were AmpC nodet inh 19%.

Remaining list, next part
COCCOC(=O)c1c(NC(=O)CN2CCOCC2)sc(C(N)=O)c1C was read as AmpC nodet inh -4%.
For O=C(CC(C(=O)O)C1CCCO1)Nc1cccc(C(F)(F)F)c1 (stereo not drawn) the results were AmpC nodet inh -9%.
`COc1ccc(S(=O)(=O)NC2CCCCC2)cc1C` gave AmpC nodet inh -12%.
For Cc1ccc(C(=O)NCc2ccc3c(c2)OCO3)cc1S(=O)(=O)N1CCCCC1 the results were AmpC nodet inh -23%.
For Fc1ccc(CSc2nnc(-c3cnccn3)n2Cc2ccco2)cc1 the results were AmpC nodet inh 30%.
COc1ccc(N2CCN(C3CC(=O)N(c4ccc5c(c4)OCCO5)C3=O)CC2)cc1 (stereo not drawn) was read as AmpC nodet inh 45%.
For CCN(CC)CCOc1ccc(/C(=C(\Cl)c2ccccc2)c2ccccc2)cc1 the results were AmpC nodet inh 81%[12.8 µM].
Screening CCCCCNC(=O)c1ccc2c(=O)n(CC3CCCO3)c(=O)[nH]c2c1 (stereo not drawn) returned AmpC nodet inh 0%.
For Cc1ccc(-c2nn(CC(C)(C)C)c3ncnc(N)c23)cc1 the results were AmpC nodet inh 15%.
For Cn1ccnc1-c1nc2ccccc2[nH]c1=O the results were AmpC nodet inh -18%.
For O=C(COC(=O)CSCC(=O)N1CCCCC1)NCc1ccc(F)cc1 the results were AmpC nodet inh 20%.
`Cc1noc(C)c1S(=O)(=O)N1CCN(C(c2ccccc2)c2ccc(Cl)cc2)CC1` (stereo not drawn) gave AmpC nodet inh 0%.
For Cc1ccc(CN(Cc2cc3cccc(C)c3[nH]c2=O)C(=O)N(C)C)cc1 the results were AmpC nodet inh 98%.
For Cc1noc(NS(=O)(=O)c2ccc(NC(=O)CSc3nc4ccccc4[nH]3)cc2)c1C the results were AmpC nodet inh -15%.
For CCCNS(=O)(=O)c1ccc(C(=O)NCC2CCCO2)cc1 (stereo not drawn) the results were AmpC nodet inh 5%.
For COc1cccc(C2NC(=O)NC(C)=C2C(=O)Nc2ccc(C)cc2)c1OC (stereo not drawn) the results were AmpC nodet inh 53%.
COc1ccccc1CNc1nc2ccccc2n1CCN1CCCCC1 was read as AmpC nodet inh 12%.
O=C(Nc1ccc(N2CCN(C(=O)c3ccccc3)CC2)cc1)c1ccc(Br)o1 was read as AmpC nodet inh 44%.
`NC(=O)C1(N2CCCCC2)CCN(C(=O)c2ccccc2)CC1` gave AmpC nodet inh 1%.
`CC(=O)c1cccc(NC(=O)Nc2ccc(C(=O)N3CCOCC3)cc2)c1` gave AmpC nodet inh -4%.
O=C(O)c1ccc(/C=N\N=C2c3ccccc3-c3ccccc32)cc1 was read as AmpC nodet inh -2%[5.75 µM].
Cc1cc(O)c(C2(C(F)(F)F)NCCNC2=O)cc1C (stereo not drawn) was read as AmpC nodet inh 1%.
`COc1ccc(CCNC(=O)CN(c2ccccc2OC)S(C)(=O)=O)cc1` gave AmpC nodet inh 24%.
COCCn1c(=O)c(-c2ccc(Cl)cc2)nc2cnc(OCc3ccccc3)nc21 was read as AmpC nodet inh 0%.
Screening COc1cccc(Cn2cccc(NC(=O)NC3CCCCC3)c2=O)c1 returned AmpC nodet inh -10%.
`CCC(=O)N1CCc2cc(S(=O)(=O)NCCC(=O)N3CC=C(c4ccccc4)CC3)ccc21` gave AmpC nodet inh 88%.
O=c1cc(CO)oc(CN2CCN(c3ccccc3F)CC2)c1O was read as AmpC nodet inh -1%.
`CCOc1ccc(-c2cc(CCCC(=O)NCCCOC)no2)cc1` gave AmpC nodet inh 93%.
